VACV mCherry inh = qHTS for Stage-Specific Inhibitors of Vaccinia Orthopoxvirus: mCherry Reporter Primary qHTS; Vaccinia virus mCherry reporter infection, fluorescence; about a quarter of the inactives have no number; Potency, µM (titrated, usually from 36.5 µM), inactives show at the top dose activity change, negative = inhibition, most hits filed as inhibitors; 310,000 compounds, 0.63% hits; active = well fitted inhibition curve with a large enough effect; inconclusive = small, poorly fitted or top-dose-only effect; inactive = no such curve, though single readings can be large or run the other way; tested in A549 cells; also: nearly all actives have a fitted effect of over 35% in size; inactives centre near -10
VACV Venus inh = qHTS for Stage-Specific Inhibitors of Vaccinia Orthopoxvirus: Venus Reporter Primary qHTS. Vaccinia virus Venus reporter expression, fluorescence. Potency, µM (highest dose often 36.5 µM), for the others: at the highest dose activity change, negative = inhibition, usual class: inhibitors. 330,000 compounds, 0.46% hits; active means well fitted inhibition curve with a large enough effect; inconclusive means small, poorly fitted or top-dose-only effect; inactive means no such curve, though single readings can be large or run the other way; tested in A549 cells; also: nearly all actives have a fitted effect of over 30% in size; inactives centre near -10
Numbers without * were called inactive; i = inactive; ? = inconclusive; . = not tested or not shown; [ ] = another dose, or the depositor's remark. % is scaled to controls: 0 for no effect and ±100 for the full control effect; potency is read from the fitted curve at half-maximal effect. Rows were taken by chance (roughly 0.82% active in at least one column).

SMILES	VACV mCherry inh	VACV Venus inh
Cc1ccccc1NS(=O)(=O)c1ccc(C(=O)NCC(c2ccccc2)N(C)C)cc1 (stereo unspecified)	-5%	-17%
CCC(=O)N1c2ccccc2C(C)(c2ccccc2)CC1(C)C (stereo unspecified)	-7%	0%
N#Cc1ccc(CN2CCN(C(=O)Cn3nc(C(N)=O)c4ccccc4c3=O)CC2)cc1	i	-26%
CC(C)Cn1c(N2CCN(CC(=O)Nc3ccc(Cl)cc3)CC2)nc2ccccc21	i	-30%
COc1ccc(C(=O)COC(=O)Cn2cnc3ccccc3c2=O)c(OC)c1	i	-13%
Cc1cccc(COCC(Cc2ccccc2)N2CCN(C(=O)c3ccc(Cl)c(Cl)c3)CCC2=O)c1 (stereo unspecified)	?	?
C/C=C/Cn1c(N2CCCCCC2)nc2c1c(=O)[nH]c(=O)n2C	.	-23%
CN(C)S(=O)(=O)c1ccc(SCC(=O)Nc2ccc3c(c2)OCCO3)nc1	-6%	2%
O=C1CC(N2CCN(S(=O)(=O)c3ccc(Cl)cc3)CC2)C(=O)N1CCc1ccccc1 (stereo unspecified)	-11%	-4%
CCOc1ccc(OCC(=O)NCCS(=O)(=O)N2CCN(c3ccc(OC)cc3)CC2)cc1	-19%	-17%
CC(=N)C1=C(O)CC(C)(C)CC1=O	.	-3%
O=C(CSc1nnc(-c2cccc(F)c2)o1)Nc1nncs1	0%	-4%
CC(C)Oc1ccc(/C(O)=C2/C(=O)C(=O)N(Cc3cccnc3)C2c2ccco2)cc1 (stereo unspecified)	-21%	-11%
Cc1cc(C)c2cc(C(=O)N3CCC(C(=O)c4ccc(F)cc4)CC3)[nH]c2c1	?	?
CCc1ccc(S(=O)(=O)c2cn(C)c3ccc(C)cc3c2=O)cc1	-13%	0%
C=CCC[C@@H](Cc1ccc(F)cc1)C(=O)O[C@H](CNC(=O)[C@H](CC=C)CC(=O)N(CCO)Cc1ccccc1)c1ccccc1	i	?
O=[N+]([O-])c1cc(CN2CCC(O)CC2)ccc1Cl	i	1%
Cc1ccc(S(=O)(=O)N2CCOCC2)cc1C(=O)OCC(=O)N1CCc2ccccc2C1	-25%	-19%
O=C1C=CC(=O)N1c1ccc2c(c1)Cc1cc(F)ccc1-2	?	-4%
CCCOc1ccc(-c2nc(C#N)c(N3CCN(CC)CC3)o2)cc1	.	-9%
CCC(=NCc1cccnc1)c1c(O)n(-c2ccccc2C)c(=O)[nH]c1=O	-13%	-11%
COc1cccc(/C=C2/NC(=O)NC2=O)c1OCC(=O)Nc1ccccc1	-10%	-17%
COCCCNC(=O)CC1C[C@H](C(=O)N(C(C)C)C(C)C)[C@@]2(C)c3[nH]c4ccc(OC)cc4c3CCN2C1=O (stereo partly specified)	?	-21%
CC(=O)Nc1ccccc1C(=O)N1CC(C)OC(C)C1 (stereo unspecified)	.	-17%
COc1ccc(CNC(=O)CCC(=O)c2ccc(F)cc2)cc1OC	-13%	5%
CCC(=O)N1CCc2cc(S(=O)(=O)CCC(=O)Nc3c(C)n(C)n(-c4ccccc4)c3=O)ccc21	i	-6%
O=C(Nc1ncc([N+](=O)[O-])s1)c1ccc2c(c1)OCO2	-22%	-10%
CC(C)=CCC/C(C)=C/CO	-17%	-13%
C=CCNC(=O)c1ccccc1NC(=O)C1CC(=O)N(C(C)C)C1 (stereo unspecified)	-14%	-5%
CCN=C1Cn2c(nc3scc(-c4ccccc4)c3c2=O)CN1CC	-25%	-19%
CC(=O)Nc1ccc(S(=O)(=O)NCC2CCC(C(=O)NC(C)c3ccccc3)CC2)cc1 (stereo unspecified)	i	-2%
Cc1ccc(S(=O)(=O)N2CC3(C)CN(S(=O)(=O)c4ccc(C)cc4)CC(C)(C2)C3)cc1	-10%	-6%
O=C(N/N=C/C(Cl)=C\c1ccccc1)c1cnccn1	-7%	-8%
Fc1ccc(OCCOCCN2CCCC2)cc1	-11%	9%
CC(=O)N/C(=C\c1ccccc1)C(=O)OCC(=O)NC(C)C12CC3CC(CC(C3)C1)C2 (stereo unspecified)	-8%	-15%
CN(C)c1ccc(S(=O)(=O)c2ccc(Cl)cc2)cc1	-10%	-7%
Cc1cc2ccccc2n1-c1ccc(C(=O)N2CCC(C(=O)NCc3ccc(Cl)cc3)CC2)s1	?	?
O=C1c2ccccc2-c2cc3ccccc3cc21	-9%	-15%
Cc1ccc(NC(=O)CCC(=O)N2CCOCC2)nc1	-4%	-7%
CCC(C)[C@@H]1NC(=O)N(CCCN2CCCC2=O)C1=O (stereo partly specified)	-14%	-5%
CCC(CC)c1nnc(NC(=O)CS(=O)(=O)c2ccccc2)s1	-10%	9%
CC(C)(C)NC(=O)c1cccc(NC(=O)CSc2ccccc2)c1	-19%	0%
CCOC(=O)C1(CCCc2ccccc2)CCN(C(=O)c2cc(C)nc(C)n2)CC1	i	-12%
O=C(NCc1ccc2c(c1)OCO2)C(=O)NCC1OCCN1S(=O)(=O)c1ccccc1 (stereo unspecified)	-17%	-15%
CCCCCn1cnc2sc(CC)cc2c1=O	-9%	-22%
CCCCN1C(=S)NC[C@@H]1C(C)CC (stereo partly specified)	-1%	4%
OCCNCc1cc(Br)ccc1OCc1ccc(Cl)cc1	-28%	-25%
COc1ccc(C(=O)Nc2oc(-c3ccccc3)c(-c3ccccc3)c2C#N)cc1OC	i	-2%
COc1ccc(S(=O)(=O)N2CCCCC2)cc1NC(=O)CCNC(=O)c1ccc(Cl)cc1	-6%	-11%
COc1ccc(N2C(=S)NC(C)(C)CC2(C)c2ccc(OC(C)=O)cc2OC(C)=O)cc1 (stereo unspecified)	-5%	-3%
Cc1ccc(C(=O)Cc2nc3ccccc3[nH]2)cc1	-16%	-13%
CCOc1ccc(N2C(=O)CC(NC3CCN(C(=O)c4ccc(F)cc4)CC3)C2=O)cc1 (stereo unspecified)	i	-5%
COc1ccccc1NC(=S)N1CCN(Cc2ccc3c(c2)OCO3)CC1	-7%	-16%
COc1ccc(-c2nnc(NC(=O)c3ccc(F)cc3)o2)cc1	?	?
Cc1c(CNC(=O)c2cnn3c2NC(c2ccc(Br)cc2)CC3C(F)(F)F)cnn1C (stereo unspecified)	.	-25%
Cc1cc(-c2ccc(S(=O)(=O)Nc3ccc(C#N)cc3)s2)on1	-14%	-11%
Cc1ccc(C2(O)CN(c3ccccc3)C3=[N+]2CCS3)cc1 (stereo unspecified)	-12%	-18%
COc1ccc(OC)c(S(=O)(=O)N2CCN3CCCC3C2)c1 (stereo unspecified)	i	-11%
O=C(NC1CCCCC1)c1c2c(nc3ccccc13)CCC2	-11%	-13%
O=C(CNC(=O)C1COc2ccccc2O1)Nc1ccc(F)c(F)c1 (stereo unspecified)	-11%	-2%

Next section
SMILES	VACV mCherry inh	VACV Venus inh
CCOC(=O)c1c(NC(=O)COc2cccc(C(F)(F)F)c2)sc2c1CCCCC2	-1%	4%
COc1ccc(/C=N/NC(=O)c2cc(C34CC5CC(CC(C5)C3)C4)[nH]n2)cc1OC	i	9%
COc1ccc(C2NC(=O)c3ccccc3N2)cc1 (stereo unspecified)	?	?
COc1ccccc1NC(=O)c1nn(-c2cccc(C(F)(F)F)c2)ccc1=O	.	-8%
N#CC1=C(N)Oc2ccccc2C12C(=O)Nc1n[nH]c(-c3ccccc3)c12 (stereo unspecified)	.	5%
COC(=O)COc1ccc2c(=O)c(Oc3ccccc3Br)coc2c1	i	-19%
CC1=C2C3OC(=O)C(C)C3CCC2(C)C=CC1=NO (stereo unspecified)	-18%	-13%
CC(C)CC(NS(=O)(=O)c1ccccc1S(=O)(=O)NC(CC(C)C)C(=O)O)C(=O)O (stereo unspecified)	-16%	-9%
CC(C(=O)c1c[nH]c2ccccc12)N1CCN(C(=O)c2ccco2)CC1 (stereo unspecified)	-9%	-8%
COC(=O)c1ccccc1NC(=O)CN(c1ccccc1)S(=O)(=O)N(C)C	-9%	0%
S=C(Nc1ccc(Br)cc1)NC1CCCC1	-16%	-22%
O=C1CCc2cc(NS(=O)(=O)c3ccc([N+](=O)[O-])cc3)cc3c2N1CC3	?	?
COc1ccc(C2C(C(=O)N3CCCC3)c3cc(OC)c(OC)cc3C(=O)N2C)cc1OC (stereo unspecified)	-19%	-11%
CC(C)CCNC(=O)c1ccc2c(c1)N(Cc1cccc(Cl)c1)C(=O)c1ccccc1S2	-10%	-6%
CC(=O)N1CCc2c(sc3c2c(=O)n(-c2ccccc2)c(=O)n3CC(=O)NCC2CCCO2)C1 (stereo unspecified)	i	-3%
O=C1CCC(C(=O)N2CCCCO2)CN1Cc1ccc(Cl)cc1 (stereo unspecified)	-2%	-3%
Cc1cc(O)c2c(c1O)C(=O)c1c(O)cc(C)c(O)c1C2=O	-4%	6%
Cc1ccccc1OCC(=O)Nc1cccc(S(=O)(=O)NC2=NCCCCC2)c1	i	-18%
O=C(NNc1ccccc1)Nc1cc(Cl)ccc1Cl	-24%	-15%
CCCC(=O)Oc1ccccc1C1SCc2cc(C)c(C)cc2CS1	-1%	-14%
CC(C(=O)Nc1ccc(O)cc1)c1cccc(C(=O)c2ccccc2)c1 (stereo unspecified)	2%	-10%
O=C1CCCC2=C1C(c1ccncc1)c1c(nc(SCc3ccccc3Cl)[nH]c1=O)N2 (stereo unspecified)	.	-26%
CCOC(=O)c1sc2nc(C)n(CC(=O)NCC3CCCO3)c(=O)c2c1C (stereo unspecified)	-12%	-12%
O=c1cc(C(O)C[N+](=O)[O-])occ1OCc1ccccc1 (stereo unspecified)	3%	-4%
CCOC(=O)/C(C#N)=C\c1ccc(O)c(OC)c1	-9%	7%
Cc1cc(N2CCOCC2)c2c(N)cc(C)c(C)c2n1	.	-22%
Cc1ccc(C)c(NC(=O)Cn2cnc3nc4c(cc3c2=O)CCCC4)c1	-13%[7.34 µM]	-9%[7.34 µM]
Cc1noc(C)c1COC(=O)C1(c2cccc(F)c2)CCCC1	-2%	-19%
O=[N+]([O-])c1ccccc1NS(=O)(=O)c1ccccc1	-23%	-23%
O=C1C(Cl)=C(N2CCCCC2)C(=O)N1Cc1ccccc1	-11%	0%
CNC(=S)N1CCN(c2ccc(OC)cc2)CC1	-1%	-6%
CC(=O)N1CCc2c(sc(NC(=O)c3ccc([N+](=O)[O-])o3)c2C(N)=O)C1	1.8µM*	5µM*
CCOc1ccccc1NC(=O)CSc1ccc([N+](=O)[O-])cc1	6%	2%
CCCc1nn(C)c(C(=O)Nc2ccccc2)c1Cl	i	-10%
COCCn1c(C)cc(O)c(C(c2ccccc2OC)N2CCN(c3ccccc3)CC2)c1=O (stereo unspecified)	-9%	-9%
CCCN(CCC)C(=O)c1cc(S(=O)(=O)N2CCCCC2)c[nH]1	i	-10%
CCN(CC)c1nc2ccccc2[nH]c1=O	-6%	-18%
O=C(CCn1c(=O)c2ccccc2n(Cc2cccnc2)c1=O)NCc1ccc2c(c1)OCO2	.	-9%
COc1ccc(NC(=O)COC(=O)CCCN2C(=O)c3ccccc3C2=O)cc1Cl	-11%	17%
Cc1ccc(C2(C)NC(=O)N(CC(=O)NCCN3C(=O)S/C(=C\c4cccnc4)C3=O)C2=O)cc1 (stereo unspecified)	-27%	?
COC(C(=O)N/N=C(\C)CC(=O)Nc1ccc(Cl)cc1C)c1ccccc1 (stereo unspecified)	-22%	-18%
OCCN1CCN(CC/C=C2/c3ccccc3Sc3ccc(Cl)cc32)CC1	-22%	?
CC1CCCCC1NC(=O)Cn1c(CN2CCCCC2)nc2ccccc2c1=O (stereo unspecified)	-13%	-12%
Cc1ccc(NC(=O)CSc2nnc(CCC(=O)O)c(=O)[nH]2)cc1	-10%	-2%
CCOc1ccc(CCNC(=O)C2CC(=O)N(Cc3ccc(C)cc3)C2)cc1OCC (stereo unspecified)	i	-18%
O=C(CSc1nc2ccsc2c(=O)n1-c1ccc(Br)cc1)NCc1ccc(Cl)cc1	-3%	5%
CC(C)(C)c1nnc(N/N=C/c2ccccc2)n(N)c1=O	-6%	-18%
O=C(c1cc(-c2ccc(Br)cc2)on1)N1CCCC1	-14%	-7%

Screening data from PubChem.
